MLL AF4-AF9 inh – inhibitors of human MLL-AF4/AF9 interaction; 0.47% of 350,000 active; AlphaScreen, biotin-AF4 peptide binding to FLAG-AF9; P42568; AID 651704; inhibition, % at 10 µM;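 active = every replicate reaching a set inhibition limit, whatever the replicate mean, cut at about 25% in these data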;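 note: 0% = plate neutral control median and 100% = total signal loss; the record names both 10 and 1 µM as test concentration; the first replicate is given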
Target sequence (P42568 whole entry, looked up): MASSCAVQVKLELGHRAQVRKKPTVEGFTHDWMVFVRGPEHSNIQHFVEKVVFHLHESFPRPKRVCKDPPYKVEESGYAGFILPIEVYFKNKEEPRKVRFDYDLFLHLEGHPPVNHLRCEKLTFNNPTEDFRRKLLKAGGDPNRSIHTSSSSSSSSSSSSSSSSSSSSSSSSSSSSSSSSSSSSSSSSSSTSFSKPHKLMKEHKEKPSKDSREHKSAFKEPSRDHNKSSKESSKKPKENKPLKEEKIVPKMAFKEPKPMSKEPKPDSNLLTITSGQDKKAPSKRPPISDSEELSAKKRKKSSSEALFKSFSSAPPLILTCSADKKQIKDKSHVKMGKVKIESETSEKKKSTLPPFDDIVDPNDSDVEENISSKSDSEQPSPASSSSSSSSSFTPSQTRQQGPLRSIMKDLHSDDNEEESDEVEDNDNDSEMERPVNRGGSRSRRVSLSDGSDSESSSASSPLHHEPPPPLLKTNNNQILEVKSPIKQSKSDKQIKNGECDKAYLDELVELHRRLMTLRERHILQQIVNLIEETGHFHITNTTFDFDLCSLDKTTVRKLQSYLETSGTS
Ecoli rRNA inh – inhibitors of bacterial rRNA selective over humanized ribosomes; E. coli WT GFP vs humanized-ribosome RFP mutants, fluorescence, 24 h; stronger effect = lower value; DMSO median 0, no signal -100; GFP signal change (wild-type ribosome), % (concentration not given with the values); 1.6% of 350,000 active; AID 720706;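 active = significant combined selectivity score with lowered wild-type GFP, culture density cut under 30%, mutant RFP and density less affected; inactive = any of these conditions unmet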; note: one replicate is shown; some compounds called inactive have numbers as strong as hits
FGF22 binding – FGF22 (human) thermal shift binding. recombinant FGF22 thermal shift, SYPRO orange fluorescence; percent of sucrose octasulfate shift, DMSO zero. calls only at 9.99 µM. 1.5% of 340,000 active;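 active = melting point raised past a set limit in the mean and every replicate; three in four hits are not shown here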
Target sequence (Q9HCT0 whole entry, looked up): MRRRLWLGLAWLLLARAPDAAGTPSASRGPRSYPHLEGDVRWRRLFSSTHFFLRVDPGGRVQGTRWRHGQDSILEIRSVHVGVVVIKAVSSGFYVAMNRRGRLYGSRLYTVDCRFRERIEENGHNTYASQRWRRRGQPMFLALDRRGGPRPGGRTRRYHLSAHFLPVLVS
Ecoli rRNA inh OD600 – also measured in Ecoli rRNA inh; calls as there; OD600 change, %; measured here: OD600 growth;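 optical density of the mix in the first replicate; 0 = DMSO median and -100 = no signal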
Ecoli rRNA inh RFP – second read-out of Ecoli rRNA inh, no call of its own (marks repeat the call); RFP signal change, %; measured here: RFP humanized mutant strains;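 first replicate; 0 = DMSO median and -100 = no signal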
Starred values were filed as active, the others as inactive; i = inactive; & = joins results of further samples. A portion of the library; the hit share may differ from the screen's.

SMILES	MLL AF4-AF9 inh	Ecoli rRNA inh	Ecoli rRNA inh OD600	Ecoli rRNA inh RFP	FGF22 binding
O=C(C[C@@H]1CC[C@@H](NS(=O)(=O)c2ccccc2)[C@@H](CO)O1)N1CCC(Cc2ccccc2)CC1	2.8	-4	-28	-0.3	i
O=C(c1cccnc1)N1CC[C@@H]2[C@H]1c1cc(-c3cccc(F)c3)ccc1N[C@@H]2CO	-4.3	-8	-9	2.3	i
CC(=O)Nc1ccc(-c2ccnc3c2CC(C(=O)Nc2cccnc2)O3)cc1 (centres undefined)	-8.1	1	8	-1.3	i
CS(=O)(=O)N1CC2(C1)[C@H](c1ccccc1)[C@H](CO)N2Cc1ccccc1	1.4	0	-1	0.1	i
CCOC(=O)C1(C)CCN1C(=O)c1ccc(C(=O)OC)cc1 (centres undefined)	-0.8	9	15	4.5	i
CCOC(=O)Nc1ccc2nc(-c3cscn3)[nH]c2c1	-7.9	-2	14	5.6	i
CCCNC(=O)N(C)C[C@@H]1Oc2ncc(C#CCc3ccccc3)cc2C(=O)N([C@H](C)CO)C[C@@H]1C	-3.0	-4	-8	1.0	i
CCC(=O)N1[C@@H]2c3cccc(=O)n3C[C@H]1[C@H](CO)[C@H]2C(=O)NCc1ccc(F)cc1	-1.3	0	-4	-1.1	i
C[C@H]1CCCCO[C@@H](CN(C)Cc2ccc(C(F)(F)F)cc2)[C@@H](C)CN([C@@H](C)CO)C(=O)c2cc(NC(=O)c3ccncc3)ccc2O1	7.5	0	-21	9.2	i
Cc1noc(C)c1S(=O)(=O)Nc1ccc2c(c1)C(=O)N([C@H](C)CO)C[C@H](C)[C@H](CN(C)C(=O)Nc1cccc3ccccc13)OCCCC[C@@H](C)O2	1.7	-1	-29	-5.6	i
C[C@@H]1CCCCO[C@H](CN(C)Cc2ccc(C(=O)O)cc2)[C@H](C)CN([C@@H](C)CO)C(=O)c2cc(NS(=O)(=O)c3ccc(F)cc3)ccc2O1	-4.0	-4	-7	-3.0	i
COc1ccc(CN(C)C[C@@H]2Oc3ccc(NC(=O)Nc4ccc(F)cc4)cc3CC(=O)N([C@H](C)CO)C[C@H]2C)cc1	-0.4	-55	-74	-12	i
CC(C)NC(=O)Nc1ccc2c(c1)CC(=O)N([C@H](C)CO)C[C@H](C)[C@@H](CN(C)Cc1ccc(C(=O)O)cc1)O2	-2.0	4	0	-0.2	i
O=C(NC[C@H]1[C@@H](c2ccccc2)[C@@H](CO)N1CC1CCCC1)C1CC1	0.9	3	-2	1.5	i
Cc1ccccc1S(=O)(=O)N(C)C[C@@H]1OCc2cn(nn2)CCCC(=O)N([C@H](C)CO)C[C@@H]1C	-2.2	1	2	-0.8	i
C[C@H](CO)N1C[C@H](C)[C@H](CN(C)Cc2ccncc2)Oc2ccc(NC(=O)NC3CCCCC3)cc2CC1=O	-0.5	-6	-2	0.4	i
O=[N+]([O-])c1ccc(-c2nc(Cl)c3c(n2)CCCC3)o1	4.6	-57	-75	-17	i
OC[C@@H]1[C@@H](c2ccccc2)C2(CN(Cc3ccccc3F)C2)N1Cc1ccccc1F	6.3	-20	-43	-1.1	i
Cc1noc(C)c1NC(=O)N(C)C[C@H]1Oc2ccc(NC(=O)CCCCCC(=O)Nc3ccccc3N)cc2CC(=O)N([C@@H](C)CO)C[C@H]1C	-1.0	0	9	-1.1	i
CN(c1ccc([N+](=O)[O-])cc1)c1cc2c(c3c1ccn3C)C1CCC2C1 (centres undefined)	9.2	-3	-14	-5.1	i
CCCc1cn(CC[C@H]2CC[C@H](NC(=O)C3CC3)[C@H](CO)O2)nn1	-0.5	0	-2	-1.6	i
C[C@@H]1CN([C@H](C)CO)C(=O)c2cccc(NC(=O)CCCCCC(=O)Nc3ccccc3N)c2O[C@H]1CN(C)Cc1ccc(-c2ccccc2)cc1	-0.1	4	4	5.6	i
CCCNC(=O)N1[C@H](CNC(=O)c2ccccc2)[C@H](c2ccccc2)[C@@H]1CO	1.7	-13	-2	-2.4	i
Cc1ccc(-c2cnc3c(c2)C(=O)N([C@@H](C)CO)C[C@H](C)[C@H](CN(C)C(=O)c2cccnc2)O3)cc1	-0.5	6	0	1.5	i
C[C@@H]1CN([C@@H](C)CO)C(=O)Cc2cc(NC(=O)Cc3cn(C)c4ccccc34)ccc2O[C@@H]1CN(C)C(=O)Nc1ccc(F)cc1	0.1	1	8	-2.1	i
C[C@@H]1CN([C@H](C)CO)C(=O)c2cc(Br)cnc2O[C@@H]1CN(C)Cc1ccncc1	-5.8	6	8	-2.1	i
COc1ccc(-c2coc3c(C(=O)NCc4ccccc4)cccc23)c(C)c1	-1.1	-3	-5	-1.0	i
C[C@H]1CN([C@@H](C)CO)C(=O)c2c(c3ccccc3n2C)-c2ccccc2CO[C@H]1CN(C)Cc1ccncc1	-4.2	-19	-27	18	i
C[C@@H]1CN([C@H](C)CO)C(=O)c2cc(-c3ccncc3)cnc2O[C@H]1CN(C)S(=O)(=O)c1ccccc1	-2.4	-2	4	-2.3	i
CCC(=O)N(C)C[C@H]1Oc2ncc(Br)cc2C(=O)N([C@@H](C)CO)C[C@H]1C	-1.6	6	2	-2.6	i
C[C@H]1CN([C@@H](C)CO)C(=O)Cc2cc(N(C)C)ccc2O[C@@H]1CN(C)Cc1ccc(C(=O)O)cc1	-4.3	0	8	-0.4	i
Cc1noc(C)c1S(=O)(=O)N(C)C[C@H]1OCCCC[C@H](C)Oc2ccc(NS(=O)(=O)c3cn(C)cn3)cc2C(=O)N([C@H](C)CO)C[C@@H]1C	-2.1	2	8	0.3	i
O=C(COC(=O)/C=C/c1ccc2ccccc2n1)NNC(=O)c1ccccc1	-0.6	3	3	5.8	i
COc1ccccc1CNC(=O)C[C@@H]1C[C@@H]2c3cc(N(C)C)ccc3O[C@@H]2[C@H](CO)O1	-4.8	1	2	1.3	i
COc1ccc(S(=O)(=O)Nc2ccc3c(c2)CC(=O)N([C@@H](C)CO)C[C@H](C)[C@@H](CN(C)C(=O)NC(C)C)O3)cc1	-3.4	6	9	-1.2	i
C[C@@H]1CN([C@@H](C)CO)C(=O)c2cccc(NC(=O)C3CC3)c2O[C@H]1CN(C)S(=O)(=O)c1cn(C)cn1	-1.2	3	0	-0.4	i
COc1ccc(C)c2sc(N(CCN(C)C)C(=O)c3ccc(S(=O)(=O)N(C)c4ccccc4)cc3)nc12	18	-12*	-6.0*	3.0*	i
COc1ccc2c3c([nH]c2c1)[C@H](CO)N(C(C)=O)CC31CCN(Cc2ccccc2Cl)CC1	2.3	-4	-25	-5.3	i
O=C(C[C@H]1CC[C@H]2[C@@H](COC[C@@H](O)CN2C(=O)c2ccc(F)cc2)O1)NC1Cc2ccccc2C1	-0.8	-4	1	1.0	i
C[C@@H]1CN([C@@H](C)CO)C(=O)c2cc(Br)cnc2O[C@@H]1CN(C)C(=O)c1ccccc1	-2.5	1	-4	-1.4	i
C[C@H](CO)N1C[C@H](C)[C@H](CN(C)C(=O)CCN2CCCCC2)Oc2ncc(C#CCN(C)C)cc2C1=O	-1.8	0	-5	0.4	i
O=C(Cc1ccncc1)Nc1ccc2c(c1)[C@@H]1C[C@@H](CC(=O)N3CCc4ccccc4C3)O[C@H](CO)[C@@H]1O2	4.8	0	-2	-1.7	i
CCCN(C)C[C@@H]1Oc2ncc(C#Cc3ccc(OC)cc3)cc2C(=O)N([C@H](C)CO)C[C@@H]1C	6.5	1	-2	0.1	i
CCc1ccc(C(O)c2ncc(-c3ccccc3F)[nH]2)cc1 (centres undefined)	1.7	1	-62	9.1	i
C[C@@H]1CN([C@@H](C)CO)C(=O)Cc2cc(N(C)C)ccc2O[C@@H]1CN(C)Cc1ccc(-c2ccccc2)cc1	42*	-9	-44	17	i

Some of the entries so far, comma-delimited.
mol,MLL AF4-AF9 inh,Ecoli rRNA inh,Ecoli rRNA inh OD600,Ecoli rRNA inh RFP,FGF22 binding
O=C(NC[C@H]1[C@@H](c2ccccc2)[C@@H](CO)N1CC1CCCC1)C1CC1,0.9,3,-2,1.5,i
O=[N+]([O-])c1ccc(-c2nc(Cl)c3c(n2)CCCC3)o1,4.6,-57,-75,-17,i
C[C@H](CO)N1C[C@H](C)[C@H](CN(C)C(=O)CCN2CCCCC2)Oc2ncc(C#CCN(C)C)cc2C1=O,-1.8,0,-5,0.4,i

Other records:
SMILES	MLL AF4-AF9 inh	Ecoli rRNA inh	Ecoli rRNA inh OD600	Ecoli rRNA inh RFP	FGF22 binding
CCS(=O)(=O)N1CC(=O)N2[C@H](CO)[C@@H](c3ccc(C#CCC(C)C)cc3)[C@@H]2C1	3.7	-4	-34	9.3	i
CC(=O)Nc1cc(-c2cccc(NS(C)(=O)=O)c2)cn2c(-c3cccc(C(F)(F)F)c3)cnc12	2.8	1	-5	1.4	i
C[C@@H]1CN([C@H](C)CO)C(=O)Cc2cc(NC(=O)Nc3ccc(C(F)(F)F)cc3)ccc2O[C@@H]1CN(C)C(=O)Nc1ccccc1	-2.4	3	-14	6.2	i
CCCN1C[C@@H](C)[C@@H](OC)CN(C)C(=O)c2ccc(NS(C)(=O)=O)cc2OC[C@@H]1C	-2.3	1	-3	0.2	i
C[C@H]1CN([C@@H](C)CO)S(=O)(=O)c2ccc(Br)cc2O[C@@H]1CN(C)C(=O)C1CCOCC1	-1.1&-0.4	5&2	6&6	-0.7&-3.2	i
CN(C)C(=O)C[C@H]1C=C[C@H](NC(=O)NC2CCCCC2)[C@@H](CO)O1	-0.9	3	-4	1.2	i
C[C@H](O)C#Cc1cnc2c(c1)C(=O)N([C@@H](C)CO)C[C@H](C)[C@H](CN(C)Cc1ccc(-c3ccccc3)cc1)O2	5.3	-3	-9	3.9	i
Cc1ccc(S(=O)(=O)Nc2ccc3c(c2)C(=O)N([C@H](C)CO)C[C@H](C)[C@H](CN(C)CC2CCCCC2)O3)cc1	1.7	5	11	1.1	i
C[C@H](CO)N1C[C@H](C)[C@H](CN(C)Cc2ccc(C(F)(F)F)cc2)OCCCC[C@H](C)Oc2ccc(NC(=O)c3ccncc3)cc2C1=O	7.2	6	-37	34	i
C[C@@H]1CN([C@H](C)CO)C(=O)c2cccc(NC(=O)C3CC3)c2O[C@H]1CN(C)Cc1ccccc1	2.2	-6	-9	-2.7	i
CN(C)CC(=O)N[C@H]1C=C[C@@H](CC(=O)NCc2ccc(Cl)cc2)O[C@@H]1CO	-1.6	0	7	-1.4	i
CO[C@H]1CN(C)C(=O)c2ccc(NC(=O)C3CCCCC3)cc2OC[C@H](C)N(C(=O)c2ccccc2)C[C@H]1C	0.8	-5	-12	-1.5	i
CN1c2ccc(-c3ccccc3)cc2[C@H]2[C@H](CCN2C(=O)c2ccncc2)[C@@H]1CO	-0.1	0	-8	5.7	i
Cc1ccc(S(=O)(=O)N[C@@H]2C=C[C@H](CC(=O)NCCc3ccncc3)O[C@@H]2CO)cc1	-3.4	5	1	-1.3	i
COc1ccc(S(=O)(=O)N(C)C[C@@H]2Oc3c(NC(=O)Nc4ccc(F)cc4)cccc3C(=O)N([C@@H](C)CO)C[C@@H]2C)cc1	4.5	-2	-10	0.9	i

3 entries from above, sorted by their value in Ecoli rRNA inh RFP, descending.
SMILES	MLL AF4-AF9 inh	Ecoli rRNA inh	Ecoli rRNA inh OD600	Ecoli rRNA inh RFP	FGF22 binding
CCS(=O)(=O)N1CC(=O)N2[C@H](CO)[C@@H](c3ccc(C#CCC(C)C)cc3)[C@@H]2C1	3.7	-4	-34	9.3	i
CCCN1C[C@@H](C)[C@@H](OC)CN(C)C(=O)c2ccc(NS(C)(=O)=O)cc2OC[C@@H]1C	-2.3	1	-3	0.2	i
CN(C)CC(=O)N[C@H]1C=C[C@@H](CC(=O)NCc2ccc(Cl)cc2)O[C@@H]1CO	-1.6	0	7	-1.4	i

Other structures
SMILES	MLL AF4-AF9 inh	Ecoli rRNA inh	Ecoli rRNA inh OD600	Ecoli rRNA inh RFP	FGF22 binding
C[C@H]1CN([C@@H](C)CO)C(=O)Cc2cc(NS(C)(=O)=O)ccc2O[C@@H]1CN(C)S(=O)(=O)c1cccs1	-0.9	2	4	-2.9	i
Cc1ccccc1S(=O)(=O)NCC[C@H]1CC[C@H](NC(=O)C2CC2)[C@H](CO)O1	0.7	1	-11	-3.9	i
C[C@@H]1CCCCO[C@H](CN(C)C(=O)Nc2ccc(C(F)(F)F)cc2)[C@H](C)CN([C@H](C)CO)C(=O)c2cc(N(C)C)ccc2O1	17	-4	-5	6.8	i
C[C@H]1CN([C@@H](C)CO)C(=O)c2cc(NC(=O)Nc3ccc(F)cc3)ccc2O[C@H]1CN(C)Cc1ccc(C(F)(F)F)cc1	-0.9	-6	-40	8.4	i
CCCCC(=O)N(C)c1c(C)nc2ccc(C(=O)N3CCN(c4ccccc4)CC3)cn12	0.4	7	22	0.3	i

Gathered by group: the entries above containing a furan ring, fused or not
SMILES	MLL AF4-AF9 inh	Ecoli rRNA inh	Ecoli rRNA inh OD600	Ecoli rRNA inh RFP	FGF22 binding
O=[N+]([O-])c1ccc(-c2nc(Cl)c3c(n2)CCCC3)o1	4.6	-57	-75	-17	i
COc1ccc(-c2coc3c(C(=O)NCc4ccccc4)cccc23)c(C)c1	-1.1	-3	-5	-1.0	i

Bioassay records (PubChem)
